# Compound activity: PubChem BioAssay, ICCB-Longwood Screening Facility, Harvard Medical School
# Ba CapD inh = CapD enzyme inhibition; z-score (concentration not given with the values); purified CapD enzyme, fluorescence intensity read-out; active compounds read low; some hits fall short of the stated cut; 140,000 tested, 0.23% active; AID 492967;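 active means z-score under -4 in either of two replicates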;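 further: stock transfer was 100 nL into about 40 µL; score is relative to mean and spread of the plate; one replicate is shown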
# AID504770 = E. coli YBA685 growth inhibition, screen for V. cholerae RctB inhibitors; 130,000 tested, 0.27% active; z-score (test concentration not listed); E. coli YBA685 rctB-dependent plasmid, OD600 growth, 3 h; active compounds read low; AID 504770;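 active means z-score under -2 on both plates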;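 further: wells of about 30 µL received 100 nL stock; score is relative to mean and SD of the test wells; the first replicate is given; strong numbers were not always called active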
# The depositor's hits bear a star; · = no result given. Some of the compounds tested; count on the stated rates, not on these rows.
SMILES,Ba CapD inh,AID504770
Brc1ccccc1-c1nnc2ccc3ccccc3n12,-0.28,·
COc1cccc(NS(=O)(=O)c2cc(C(=O)N3CCN(c4ccccc4)CC3)ccc2NCc2ccccc2OC)c1,1.5,·
O=C(CCCCCN1C(=O)CCC1=O)Nc1ccccc1,-0.315,0
Nc1cccc(-n2nncc2-c2ccc(Cl)cc2)c1,-0.585,1.95
CC(=O)NCCc1c[nH]c2ccc(OCC(O)CNC(C)C)cc12 (centres undefined),-0.56,-1.15
COc1cc2c(cc1OC)C1=NC(=O)CN1C(SCC(=O)OC(C)(C)C)=N2,83.2,·
COc1ccc(/C=N/c2nc3ccccc3n2C)c2c(OC)cccc12,0.705,-0.35
CCSc1nnc2c(n1)OC(C)(C)Nc1ccccc1-2,-0.35,·
C=CCn1c(C)nnc1SC(C)C(=O)c1c(C)[nH]c2ccccc12 (centres undefined),·,-0.05
Cc1onc(-c2ccccc2)c1C(=O)Oc1ccccc1N1CCOCC1,0.095,-0.05
O=C(Oc1ccc(/C=C2\SC(=Nc3ccc4c(c3)OCO4)N(c3ccc4c(c3)OCO4)C2=O)cc1)N1CCOCC1,0.085,·
O=C(Nc1cccc(C(F)(F)F)c1)c1csc(-c2ccncc2)n1,0.17,-0.2
CCOC(=O)c1c(NC(=O)c2ccc(Cl)cc2Cl)sc(C(=O)Nc2ccccc2F)c1C,1.2,·
CCOc1ccccc1N1CCN(C(=O)c2cc3cc(OC)ccc3[nH]2)CC1,12.7,-0.9
COc1ccc(-c2cc(C(F)(F)F)n3nc(C(=O)Nc4cc(C)ns4)cc3n2)cc1OC,-0.02,·
O=C1N/C(=N/S(=O)(=O)c2ccccc2)S/C1=C\c1ccc2c(c1)OCO2,0.465,·
Cc1nc(C(=O)Nc2cccc(Cl)c2Cl)c(C(F)(F)F)o1,-0.425,-0.7
O=C1CSC(c2ccc(F)c(F)c2)Nc2cccc3cccc1c23 (centres undefined),-0.355,·
Cc1ccc(C)c(OCC(O)CNC2CCC(C)CC2)c1C (centres undefined),·,-2.3
CCN1Cc2cccc(C(=O)O)c2C1=O,14.3,-0.1
CCOc1ccc(-c2c(C)nn3c2NCN(Cc2ccc(C)cc2)C3)cc1OCC,-0.26,-0.1
CCN(CC)CC(=O)N1c2ccccc2Sc2ccccc21,0.105,-0.25
O=C(CN1CCCC1)Nc1ccccc1C(=O)c1ccccc1,·,0.1
CC1CC(C)CN(C(=O)COc2ccc(-c3nnco3)cc2)C1 (centres undefined),·,0.7
CC1(C)CC(=O)C2=C(C1)Nc1c(ccc3ccccc13)C2c1ccc2c(c1)OCO2 (centres undefined),19.5,·

# (further entries)
SMILES,Ba CapD inh,AID504770
Cc1cc(C)nc(N/N=C/C=N/Nc2nc(C)cc(C)n2)n1,·,0.2
O=C(Cn1ncc2ccccc21)N1CCC2(CC1)OCCO2,0.15,-0.4
CCC(=O)N1CCc2cc(S(=O)(=O)NCCC(=O)Nc3ccc(OC(F)(F)F)cc3)ccc21,0.715,0.75
CCOC(=O)c1n[nH]c2c1CCCC2,2.66,-0.05
COc1ccc(/C=C2\CCCC3=C2OC(N)=C(C#N)C3c2ccc(OC)cc2)cc1 (centres undefined),14.7,·
O[C@H](CSc1nc2ccccc2o1)C(F)(F)F,-0.15,1.5
CSC1=C(C#N)C(=C(C#N)C#N)NC(C)=N1,-4.51*,-0.85
O=C(c1ccc(Br)c(S(=O)(=O)N2CCCCC2)c1)N1CCCCC1,-0.26,2.05
Cc1cccn2cc(-c3cccc(Br)c3)nc12,52.2,-0.3
CCOC(=O)CN1CC=CCC1,·,0.25
COc1ccc(C(=O)CNc2cccc(Cl)c2C)cc1,0.245,1.15
COc1ccc(-c2cc(-c3nnc(CON4C(=O)CCC4=O)o3)c3ccccc3n2)cc1OC,·,0.65
c1ccc(-n2c(-c3ccco3)nnc2N2CCOCC2)cc1,·,0.3
CCOc1ccc(/C=C/[N+](=O)[O-])cc1,-0.69,·
N#CC(Sc1nc(-c2cccs2)cc(-c2ccccc2)c1C(=O)O)c1ccc(Cl)cc1 (centres undefined),38.4,0.75
COc1ccccc1N1CCN(c2ncnc3sc(C(=O)Nc4ccc5c(c4)OCCO5)c(C)c23)CC1,-0.055,·
CN(Cc1ccccc1)C(=O)CCc1nc(CN2CCN(C(=O)c3ccccc3)CC2)no1,0.56,-0.9
CC1Cc2ccccc2N1C(=O)CO/N=C/c1ccccc1OC(F)F (centres undefined),·,1
N#Cc1c(-c2c(Cl)cccc2Cl)noc1/C=C/Nc1ccccc1,0.1,·
O=C(CC1Sc2ccccc2NC1=O)N/N=C/c1ccc(Cl)c(F)c1 (centres undefined),-0.45,·
CC(C)C12CN(C(=O)c3ccccc3)CC(C(C)C)(CN(C(=O)c3ccccc3)C1)C2=O,-0.135,0.2
CCCC(C)C1C(C#N)=C(N)OC2=C1C(=O)CC(C)(C)C2 (centres undefined),-0.66,-0.7
C=CCN(CC=C)CC(O)Cn1c(C)c(C)c2ccccc21 (centres undefined),0.465,-0.45
COC(=O)c1cc2cccc3c2n(c1=O)CCC3,2.75,·
CCOc1ccc(NC(=O)C2CC(=O)N(CC)C(=Nc3ccc(C)c(C)c3)S2)cc1 (centres undefined),-0.155,·

# Carrying on:
SMILES,Ba CapD inh,AID504770
CCN1C(=O)c2ccc(S(=O)(=O)N3CCCCCC3)c3cccc1c23,-0.57,·
OCC1CCCN(C(=S)Nc2ccc(Nc3ccccc3)cc2)C1 (centres undefined),-0.9,-1.25
c1ccc(N(c2ccccc2)c2nc(-n3ccnc3)nc(-n3ccnc3)n2)cc1,0.645,-1.05
CCCN1Cc2cccc(C(=O)NCc3ccc(F)cc3)c2C1=O,-0.34,-0.75
COCC(=O)Nc1c(I)c(C(=O)NCC(O)CO)c(I)c(C(=O)N(C)CC(O)CO)c1I (centres undefined),-0.34,·
CC(C(=O)NCCc1ccc(F)cc1)N1CCN(S(=O)(=O)c2ccc3c(c2)OCCCO3)CC1 (centres undefined),·,1.35
OC(CSc1ccccc1Cl)CN1CCN(c2ccccc2)CC1 (centres undefined),0.025,·
COc1ccc(CNC(=O)c2cnn3c(C)c(Cc4ccccc4Br)c(C)nc23)cc1,4.23,·
COc1cccc2c1OC1(C)NC(=O)NC2C1C(=O)Nc1cccc(Cl)c1 (centres undefined),0.12,0.8
CCOc1cccc2c1OC(c1cccc(Cl)c1)N1N=C(c3ccc(F)cc3)CC21 (centres undefined),-0.665,·
O=C(CN1CCOc2ccccc21)NC1CCCCCCC1,-0.25,0.25
COc1ccc(/C=C2\N=C(c3ccc(Cl)cc3)N(c3ccc(C)cc3C)C2=O)cc1OC,-0.54,·
CCN1C(=O)/C(=N\N2CCOCC2)c2ccccc21,·,-0.2
CCC1CCCCN1Cc1c(O)ccc2cc(-c3nc4ccccc4[nH]3)c(=O)oc12 (centres undefined),64,1.75
O=C(CSc1ccc2nnc(-c3ccc(F)cc3)n2n1)c1ccccc1,1.54,-0.65
CN1C(C(=O)c2ccccc2)=C(N2CCOCC2)c2ccccc2S1(=O)=O,-0.65,-0.75
COc1ccccc1NC(=O)CCCN1C(=O)/C(=C\c2ccco2)SC1=S,-0.615,-1.1
O=c1/c(=C/c2ccc(Br)cc2)sc2nncn12,·,0.8
Oc1ccc(C2CC3CC2C2C=CCC32)cc1 (centres undefined),0.885,-0.6
CS(=O)(=O)N1CCN(c2ncccc2C(F)(F)F)CC1,-0.09,-0.35
O=C(Sc1ccc(Cl)cc1)c1cccnc1Oc1ccccc1,-0.28,-0.1
O=S(=O)(c1ccc2c(c1)CCN2)N1CCCC1,·,0.9
CCOc1ccc(C(=O)N(CC#N)CC#N)cc1,·,-0.45
CCSCCOC(=O)C1=C(C)N(C)C(=O)NC1c1cc(Cl)c(O)c(OC)c1 (centres undefined),-0.485,·
COc1ccc(/C=C2\SC(=O)N(CCNC(=O)CC(C)(C)C)C2=O)cc1,·,-0.35

# New compounds follow:
SMILES,Ba CapD inh,AID504770
C=CCOC(=O)c1cc(-c2ccc(C=C3C(=O)NC(=O)NC3=O)o2)ccc1Cl,1.21,·
CC(=O)N1N=C(c2ccccc2)CC1c1ccc(F)cc1 (centres undefined),-0.085,-0.65
CC(=O)OC1CCC2(C#N)[C@H]3CCC4(C)C(C5=CC(=O)OC5)CCC4(O)[C@@H]3CCC2(O)C1 (some centres undefined),-0.01,-0.6
O=C(c1ccccc1)C1CCN(C(=O)CSc2ccc(Cl)cc2)CC1,-0.485,0.2
O=S(=O)(c1ccccc1Br)N1CCN(c2cccc3[nH]ccc23)CC1,-0.01,·
O=S(=O)(NCC(c1cccs1)S(=O)(=O)c1ccccc1)c1ccccc1 (centres undefined),·,-0.8
O=S(=O)(c1ccccc1)N1CCC(O)(CSc2ccc(F)cc2)CC1,0.485,·
O=C(CNC(=O)c1ccccc1)OCC1CCCN2CCCCC12 (centres undefined),-0.41,-0.95
CCN(CC)C(=S)Oc1c(C)cc(C)cc1C,0.155,·
CCOC(=O)C1CCN(C(=O)CCc2nc3ccccc3[nH]2)CC1,0.26,0.1
COC(=O)c1cc(S(=O)(=O)C(C)C)cs1,-0.54,-0.4
COc1ccc(-c2cc(-c3nnc(N)o3)no2)cc1OC,2.52,-0.1
CSCCCN1CCOCC1,0.01,-0.65
CCOc1ccc(OCCSc2nc3ccccc3n2CC(O)CO)cc1 (centres undefined),-0.5,0.3
COc1ccc(-c2csc(NC(=O)c3cc4cc(Br)ccc4oc3=O)n2)cc1,-0.26,·
CC(CCc1ccccc1)NC(=O)C1=COCCO1 (centres undefined),·,0.35
CCOC(=O)C(C)Oc1ccc2c(=O)c(-c3csc(C)n3)c(C(F)(F)F)oc2c1 (centres undefined),-1.21,·
CO/N=C/C(=N\Nc1ccc(OC)cc1)C(=O)c1ccc(Br)cc1,0.055,·
CC1CC(C)CN(C(=O)Cn2nnc(-c3cccc(C(F)(F)F)c3)n2)C1 (centres undefined),·,0
CCN(Cc1ccccc1)C(=O)CN1C(=O)C2CC=CCC2C1=O (centres undefined),·,-0.55
Cc1nc(C(F)(F)F)ccc1C(=O)Nc1ccccc1N1CCOCC1,-0.5,-0.15
O=C(Oc1ccccc1F)N1c2ccccc2Sc2ccccc21,0.3,0.25
Cc1nc(N(CCO)C2CCCCC2)c2nnn(Cc3ccccc3)c2n1,·,-0.2
C=CCn1c(=O)c(C2=NS(=O)(=O)c3ccccc3N2)c(O)c2ccccc21,·,0.9
O=C(Nc1ccc(Cl)cn1)C1Cc2ccccc2C1,·,-0.35

# Not a retest: an excerpt of the list.
SMILES,Ba CapD inh,AID504770
CC(=O)OC1CCC2(C#N)[C@H]3CCC4(C)C(C5=CC(=O)OC5)CCC4(O)[C@@H]3CCC2(O)C1 (some centres undefined),-0.01,-0.6
O=C(c1ccccc1)C1CCN(C(=O)CSc2ccc(Cl)cc2)CC1,-0.485,0.2
O=S(=O)(c1ccccc1Br)N1CCN(c2cccc3[nH]ccc23)CC1,-0.01,·
O=S(=O)(NCC(c1cccs1)S(=O)(=O)c1ccccc1)c1ccccc1 (centres undefined),·,-0.8
O=S(=O)(c1ccccc1)N1CCC(O)(CSc2ccc(F)cc2)CC1,0.485,·
O=C(CNC(=O)c1ccccc1)OCC1CCCN2CCCCC12 (centres undefined),-0.41,-0.95
CCN(CC)C(=S)Oc1c(C)cc(C)cc1C,0.155,·
CCOC(=O)C1CCN(C(=O)CCc2nc3ccccc3[nH]2)CC1,0.26,0.1
COC(=O)c1cc(S(=O)(=O)C(C)C)cs1,-0.54,-0.4
COc1ccc(-c2cc(-c3nnc(N)o3)no2)cc1OC,2.52,-0.1
CSCCCN1CCOCC1,0.01,-0.65
CCOc1ccc(OCCSc2nc3ccccc3n2CC(O)CO)cc1 (centres undefined),-0.5,0.3
COc1ccc(-c2csc(NC(=O)c3cc4cc(Br)ccc4oc3=O)n2)cc1,-0.26,·
CC(CCc1ccccc1)NC(=O)C1=COCCO1 (centres undefined),·,0.35
CCOC(=O)C(C)Oc1ccc2c(=O)c(-c3csc(C)n3)c(C(F)(F)F)oc2c1 (centres undefined),-1.21,·
CO/N=C/C(=N\Nc1ccc(OC)cc1)C(=O)c1ccc(Br)cc1,0.055,·
CC1CC(C)CN(C(=O)Cn2nnc(-c3cccc(C(F)(F)F)c3)n2)C1 (centres undefined),·,0
CCN(Cc1ccccc1)C(=O)CN1C(=O)C2CC=CCC2C1=O (centres undefined),·,-0.55

# Continuation.
SMILES,Ba CapD inh,AID504770
Cc1nc(-c2cnccn2)sc1C(=O)N(Cc1ccccc1)Cc1cccs1,2.38,-1.15
Cc1ccc(NC(=O)NC(=O)CN2CCC(C)CC2)c(C)c1,·,-0.85
O=C1C2ON(c3ccccc3)C(c3cccs3)C2C(=O)N1c1ccccc1 (centres undefined),-0.005,0.5
Cc1cc(C)nc(N2CCN(C(=O)C(C)(C)C)CC2)n1,-0.02,·
Cc1ccnc(NS(=O)(=O)c2ccc(NC(=O)/C=C/c3ccccc3)cc2)n1,-0.605,-0.05
O=C(Cc1c(F)cccc1Cl)OCC(=O)c1ccccc1,0.03,-0.8
C=CCn1c(C2CC(=O)N(c3ccccc3)C2)nc2ccccc21 (centres undefined),0.185,0.5
COc1ccc(NC(=O)c2cnn3c(C(F)(F)F)cc(-c4cc(OC)c(OC)c(OC)c4)nc23)c(OC)c1,-1,·
COc1ccccc1NC(=O)CN(Cc1ccco1)C(=O)c1cccs1,·,-0.95
C=CCC1c2cccc(C(=O)O)c2C(=O)N1c1cccc(C)c1 (centres undefined),0.205,-1.85
COc1ccc2c(c1)c(C#N)c1n2CCN=C1N(C)C,0.565,-1.3
O=C(NCC1CCCO1)C1CCCCC1 (centres undefined),1.61,0.6
O=C1c2ccccc2C2CC(c3cc(Cl)ccc3Cl)=NN12 (centres undefined),-1.12,0.85
S=c1nc(N2CCCCC2)[nH]c(N2CCCCC2)n1,0.43,-0.8
CC(=O)N(C(C)=O)c1cc(C)c(C#N)c2nc3ccccc3n12,1.29,-0.35
CCOC(=O)c1cnc(SCc2nc(-c3ccc(C)cc3)oc2C)nc1N,0.005,0.05
CCCN1CCC(N(C2CC2)S(=O)(=O)c2ccc(OC)cc2)CC1,-0.465,·
